# High-throughput results (PubChem)
# LANA-H2A inh – blocks KSHV LANA binding to histone H2A/H2B; inhibition, % (concentration not given with the values); Q9QR71; cell-free LANA-H2A/H2B peptide, fluorescence polarization; 320,000 compounds, 0.6% hits; in the data active means inhibition mostly above about 10%, no sharp cut-off; inactive means mostly below about 6.7%;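 further: stock transfer was 7.5 nL into about 10 µL; 0% = median of vehicle wells and 100% = median of positive control wells; one replicate is shown; the record names a cut of 25% in any replicate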
# RanGTP-Impb inh – inhibitors of RanGTP-importin-beta interaction, primary screen, biochemical, FRET, CFP-Ran, YFP-importin-beta, homogeneous | inhibition, % (no concentration beside the values) | cell-free CFP-Ran/YFP-importin-beta FRET ratio | 300,000 compounds, 1.1% hits;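 active means most replicates above 15%; inconclusive means exactly half above 15%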;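 further: 0% = DMSO wells and 100% = Ran loaded with GDP instead of GTP; wells of about 40 µL received 100 nL stock; the first replicate is given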
# Calb FLC – affects C. albicans growth with fluconazole | C. albicans CaCi-2 (fluconazole-resistant clinical isolate) + fluconazole, Alamar Blue growth, 48 h | growth inhibition, % (test concentration not listed) | 300,000 compounds, 0.57% hits | AID 1979;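 active means most replicates above 75%; inconclusive means exactly half above 75%; inactive means most below 75%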;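 further: all wells also contain fluconazole at 8 µg/ml as a sub-toxic cotreatment; 0% = median of DMSO wells and 100% = median of geldanamycin control wells; wells of about 8 µL received 7.5 nL stock; the first replicate is given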
# Vif A3G – HIV-1 Vif–A3G interaction blockers – biochemical, TR-FRET, GST-Vif 1-94, biotin-A3G peptide, dose response retest, primary screen (AID 1117319); 260,000 compounds, 0.57% hits; TR-FRET GST-Vif / biotin-A3G peptide binding; higher % means a stronger effect; test concentration not given here; strong numbers were not always called active; one-dose inhibition, %; IC50 in µM for titrated hits;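 active means above the screen mean plus three standard deviations and confirmed in dose response; inconclusive means results disagree or hit not tested in dose response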;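 further: Vif residues 1-94 fused to GST binding biotinylated APOBEC3G peptide 110-148; 0% = full assay without inhibitor and 100% = GST in place of GST-Vif; retest series ran down from 100 µM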
# ALR H2O2 inh – blocks human ALR sulfhydryl oxidase activity. AID 485317. 290,000 compounds, 3.8% hits. purified ALR, DTT oxidation, H2O2 HRP-luminol luminescence. inhibition, % (concentration not given with the values). P55789;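 active means mean and each replicate at 75% or more; inconclusive means only one of the two met; inactive means neither met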;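 further: stock transfer was 7.5 nL into about 7.5 µL; 0% = neutral wells and 100% = wells with inactivated enzyme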
# Target sequence (P55789 whole entry, looked up): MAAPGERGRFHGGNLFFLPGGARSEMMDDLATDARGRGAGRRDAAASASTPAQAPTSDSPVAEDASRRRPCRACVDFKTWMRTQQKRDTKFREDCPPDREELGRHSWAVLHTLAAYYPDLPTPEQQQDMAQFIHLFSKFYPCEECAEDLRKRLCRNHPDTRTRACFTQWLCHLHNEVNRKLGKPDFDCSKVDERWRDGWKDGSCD
# Beta2AR agonist – human beta-2 adrenergic receptor agonism by FAP; Am2.2-beta2AR cells, FAP receptor internalization, flow cytometry; reference of the scale not given here; response, % (test concentration not listed); 340,000 compounds, 0.43% hits; AID 504454;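 active means response above a set limit, near 3 SD of response in nonfluorescent compounds, cut at about 42% in these data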;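 further: stock transfer was 100 nL into about 11 µL; a reference agonist was the positive control; negative values mostly stem from fluorescent compounds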
# Target sequence (P07550 whole entry, looked up): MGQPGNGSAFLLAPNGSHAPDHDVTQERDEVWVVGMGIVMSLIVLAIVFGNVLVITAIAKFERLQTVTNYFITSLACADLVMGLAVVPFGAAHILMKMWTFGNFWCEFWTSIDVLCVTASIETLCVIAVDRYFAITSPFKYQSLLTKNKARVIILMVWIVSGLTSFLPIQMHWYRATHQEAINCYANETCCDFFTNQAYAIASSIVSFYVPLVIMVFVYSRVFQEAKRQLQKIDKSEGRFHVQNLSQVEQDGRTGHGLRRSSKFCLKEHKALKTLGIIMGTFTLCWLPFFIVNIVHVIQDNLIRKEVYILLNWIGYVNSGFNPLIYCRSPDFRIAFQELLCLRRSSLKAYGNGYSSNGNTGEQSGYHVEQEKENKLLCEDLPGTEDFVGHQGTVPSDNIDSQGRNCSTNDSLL
# HNF4A DNA FP – change in binding of human HNF4 alpha to DNA; 360,000 compounds, 0.3% hits; activity change, % at 10 µM; HNF4a-FITC DNA binding, fluorescence polarization, 1 h; P41235; in the data active means activity change above about 30%, passing the limit was not always enough;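 further: controls were the assay level and a saturating level of protein; the project sought stronger binding though the title names inhibitors; some compounds called inactive have numbers as strong as hits; positive values seem to mean higher polarization but the record does not say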
# Target sequence (P41235 whole entry, looked up): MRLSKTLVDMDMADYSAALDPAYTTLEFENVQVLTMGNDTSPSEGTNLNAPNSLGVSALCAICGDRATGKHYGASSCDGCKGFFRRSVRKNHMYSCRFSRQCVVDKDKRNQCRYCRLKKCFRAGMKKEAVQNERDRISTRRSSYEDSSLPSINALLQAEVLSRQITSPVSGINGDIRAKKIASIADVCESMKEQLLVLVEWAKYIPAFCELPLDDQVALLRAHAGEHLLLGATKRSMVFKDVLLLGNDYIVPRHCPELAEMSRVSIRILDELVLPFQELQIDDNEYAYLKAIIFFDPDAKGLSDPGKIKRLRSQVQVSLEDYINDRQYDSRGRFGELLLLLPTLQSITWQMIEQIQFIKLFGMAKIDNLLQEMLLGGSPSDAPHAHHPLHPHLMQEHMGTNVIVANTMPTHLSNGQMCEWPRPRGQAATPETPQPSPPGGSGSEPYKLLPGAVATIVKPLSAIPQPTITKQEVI
# Starred values were filed as active, the others as inactive; i = inactive; ? = inconclusive; nt = no result given; & = joins results of further samples.
SMILES,LANA-H2A inh,RanGTP-Impb inh,Calb FLC,Vif A3G,ALR H2O2 inh,Beta2AR agonist,HNF4A DNA FP
CCOc1ccc(OCC)c(S(=O)(=O)N2CCC(C)CC2)c1,2.1,-1.0,7,16%,10,-3,-4.7
Cc1ccccc1C(=O)N(Cc1nc2ccccc2c(=O)[nH]1)C1CCCC1,-0.9,?,16,-1%,-2,-7,-0.7
COc1ccc(S(=O)(=O)N(CC(=O)N/N=C/c2cccs2)c2cc(C)cc(C)c2)cc1OC,1.1,-0.8,19,17%,-4,-15,-2.2
CC(=O)c1ccc(N2C(=NC(=O)CCC3CCCC3)SC3CS(=O)(=O)CC32)cc1 (centres undefined),-0.5,-0.6,-12,nt,-31,-4,1.5
CCC1CCCCN1CC(=O)Nc1cc(OC)c(OC)cc1C#N (centres undefined),nt,nt,nt,-6%,nt,7,-2.2
S=c1nc[nH]c2c1[nH]c1ccccc12,3.0,?,-7,-20%,98*,-6,-0.4
S=C(Nc1ccc(Cl)cc1)N1CCOCC1,-6.6,?,3,nt,-1,7,1.7
CCOC(=O)CNC(=O)C1(/C=C/c2ccccc2)CC(=O)N1c1ccc(OC)cc1 (centres undefined),-3.4,-1.2,-1,2%,nt,-1,-2.0
CN(C)S(=O)(=O)c1cccc(C(=O)Nc2cc(Cl)ccc2O)c1,-2.7,-1.3,0,18%,3,4,5.2
COc1ccc(NC(=O)CSc2nnc(Cn3c(=O)sc4ccccc43)n2C)c(OC)c1,-7.9,4.2,9,9%,-3,1,4.1
O=C1CCCC(O)=C1Sc1ccccc1C(=O)O,-2.5,12,21,24%,-5,7,-15
Cc1csc2ncc(C(=O)NCCC(c3ccccc3)c3ccccc3)c(=O)n12,-0.3,0.0,22,nt,-6,29,1.4
Cn1c(=O)c2c(nc(CO)n2C)n(C)c1=O,2.0,1.3,15,-2%,-10,3,1.2
CC(=O)c1ccc(S(=O)(=O)Nc2ccc(C(=O)NCCCn3ccnc3)cc2)cc1,-1.5,nt,nt,-6%,-3,-7,4.5
CCCn1c(N)c(C(=O)CSc2ncn[nH]2)c(=O)n(C)c1=O,i,nt,nt,-3%,-1,-5,-0.4
Cc1cnc(NC(=O)CSc2nc3ccccc3s2)s1,4.7,-4.8,-3,4%,nt,-6,2.5
CCCCOC(=O)c1cccnc1,3.4,-3.9,-2,-6%,nt,-7,3.3
C[C@H](CO)N1C[C@H](C)[C@@H](CN(C)S(=O)(=O)c2cn(C)cn2)Oc2c(NS(=O)(=O)c3ccc(F)cc3)cccc2C1=O,3.1,nt,nt,nt,3,-3,-1.1
CC(C(=O)N1CCCCC1)n1ncn2cccc2c1=O (centres undefined),2.4,-0.2,0,71%,-18,-2,0.8
O=C1CCC/C(=N\NC(=O)COc2ccc(Cl)cc2)C1,-5.4,0.1,-18,3%,52,2,1.6
Cn1c(SCC(=O)NC2CCCCCC2)nnc1-c1ccco1,2.5,1.5,0,nt,3,-8,-1.8
CC(=O)O[C@]1(C(C)=O)CC[C@H]2[C@@H]3C=C(Cl)C4=CC(=O)CC[C@]4(C)[C@H]3CC[C@@]21C,-0.9&-11,0.0,nt,nt,-17,12,-4.7
O=C(NNC1=NCCC1)C1CC1,-0.7,nt,16,-12%,-5,-60,0.2
CC(C)C1=NN(C(=O)c2cccnc2)C(O)(C(F)(F)F)C1 (centres undefined),-6.6,-3.5,1,21%,-9,5,1.0

# In the list so far, these have a Cl atom:
SMILES,LANA-H2A inh,RanGTP-Impb inh,Calb FLC,Vif A3G,ALR H2O2 inh,Beta2AR agonist,HNF4A DNA FP
S=C(Nc1ccc(Cl)cc1)N1CCOCC1,-6.6,?,3,nt,-1,7,1.7
CN(C)S(=O)(=O)c1cccc(C(=O)Nc2cc(Cl)ccc2O)c1,-2.7,-1.3,0,18%,3,4,5.2
O=C1CCC/C(=N\NC(=O)COc2ccc(Cl)cc2)C1,-5.4,0.1,-18,3%,52,2,1.6
CC(=O)O[C@]1(C(C)=O)CC[C@H]2[C@@H]3C=C(Cl)C4=CC(=O)CC[C@]4(C)[C@H]3CC[C@@]21C,-0.9&-11,0.0,nt,nt,-17,12,-4.7

# More compounds
SMILES,LANA-H2A inh,RanGTP-Impb inh,Calb FLC,Vif A3G,ALR H2O2 inh,Beta2AR agonist,HNF4A DNA FP
COCCNC(=O)c1cc(C)ccc1C,-3.1,4.6,16,4%,-5,-6,7.1
COc1ccccc1Nc1nc2ccc(C)cc2cc1C#N,0.8,9.3,-15,16%,1,4,2.4
CCc1ccc(OCC(=O)Oc2ccc([N+](=O)[O-])cc2)cc1,1.2,4.7,-10,nt,nt,3,1.3
CN(C)c1ccc(C=Nc2cnn(C)c2C(N)=O)cc1,0.9,nt,0,-1%,98*,2,3.0
COc1ccc(NC(=S)N2CCN(S(=O)(=O)c3ccccc3)CC2)cc1,0.9,nt,4,nt,-9,5,-1.1
CCN(C(=O)COC(=O)c1ccc(S(=O)(=O)N2CCCc3ccccc32)cc1)C1CCS(=O)(=O)C1 (centres undefined),-1.0,-0.8,10,19%,4,4,0.9
CC(=O)Nc1ccc(S(=O)(=O)NC(C)C(=O)OCC(=O)NC2CCCC2)cc1 (centres undefined),1.4,2.1,4,-2%,-4,-1,-0.4
O=C(CCC(=O)Nc1cc(C(F)(F)F)ccc1Cl)N/N=C\c1cc([N+](=O)[O-])ccc1O,-2.1,3.7,-8,-15%,9,3,-1.7
Cc1occc1-c1nnc(SCC(N)=O)o1,-22,3.2,-1,11%,-5,-9,-4.9
CCN(CCCCCN(C)C)Cc1cc2ccccc2o1,-1.8,5.8,-7,nt,-11,-4,-0.5
CCOc1ccc(N2CC(C(=O)Nc3cccc(C(=O)NC4CC4)c3)CC2=O)cc1 (centres undefined),nt,nt,nt,3%,nt,-10,1.0
CCCn1nnc(NC(=O)c2ccc([N+](=O)[O-])cc2Cl)n1,-0.3,4.5,24,31%,-23,-4,1.1
C=CCNc1nnc(C)c2ccccc12,3.9,3.2,3,1%,-4,0,2.0
CCOC(=O)CSc1nnc(CNC(=O)c2ccc(OC)cc2)n1C1CCCCC1,-1.7,-2.9,2,-4%,-5,16,0.9
C=C(C)c1cccc(C(C)(C)NC(=O)Nc2ccccc2OCC)c1,1.2,0.4,11,-10%,4,1,-1.5
c1ccn(-c2ccc(-c3ccn[nH]3)cc2)c1,1.7,-2.6,36,4%,nt,-2,0.1
Cc1[nH]n(-c2ccccc2)c(=O)c1-c1cccc(Cl)c1,2.7,-1.6,-14,10%,73,5,-0.1
CCc1[nH]nc2c1C1(C(=O)N(Cc3ccccc3)c3ccccc31)C(C#N)=C(N)O2 (centres undefined),14,?,12,-1%,-13,-6,-1.6
COc1ccc(/C=N/NC(=S)Nc2ccccc2)cc1COc1ccc(F)cc1F,-0.7,-5.0,-4,7%,-11,-15,-1.8
O=C(c1cccc([N+](=O)[O-])c1)N(c1ccccn1)c1ccccn1,1.1,4.6,7,1%,-4,2,1.4
COCCNC(=O)c1ccccc1NC(=O)CSc1ccc(C)cc1,4.4,3.1,36,-17%,nt,0,-3.0
COC(=O)c1ccc2c(=O)n(CCN3CCOCC3)c(SCC(=O)Nc3ccc(OC)cc3OC)nc2c1,1.1,-3.7,-6,nt,-4,1,1.7
COc1cc2c(cc1O)CCN(C(=O)CSc1nncn1C)[C@@H]2C,1.2,nt,nt,nt,82*,5,2.0
Cc1ccc(/C=C(\C#N)C(=O)Nc2c(C)cccc2C)s1,-1.2,-2.8,-1,4%,-8,-7,29
CC(C)c1ccc(NC(=O)COC(=O)CC2CCCC2)cc1,-1.4,nt,nt,nt,2,7,2.5
O=C(Cn1nc(Cc2cccnc2)c2ccccc2c1=O)NCC1COc2ccccc2O1 (centres undefined),4.9,7.5,-2,-2%,-6,-8,-1.2
COc1ccc(S(=O)(=O)N2CCN(CC(O)COc3ccc(CC#N)cc3)CC2)cc1OC (centres undefined),3.0,-1.9,-12,nt,-1,4,-0.8
CCn1c(=S)[nH]c2sc3c(c2c1=O)CCCCC3,2.6,1.1,23,-3%,-18,-3,2.0
Nc1cc(N)nc(SCC(=O)N2CCc3ccccc32)n1,0.5,5.8,-2,-9%,-2,3,0.6
COc1ccc2c(c1)c(=O)cc(C)n2CC(=O)NCc1ccco1,-2.4,-0.7,-2,11%,-2,-4,-0.7
Cc1ccc(C(=O)N/C(=C\c2ccco2)C(=O)NCCN2CCOCC2)cc1,-1.1,0.2,-1,nt,nt,4,-2.5
COc1cccc(/C(C#N)=C/c2c(-c3ccc(Cl)cc3)nc3c(C)cccn23)c1,2.8,-4.4,5,1%,-4,7,-0.8
O=C(NN1C(=O)c2ccccc2C1=O)C1CCCCC1,1.8,2.4,-3,10%,3,-2,-0.8
NS(=O)(=O)c1ccc(-c2ccc(/C=C3\C(=O)Nc4cc(Cl)ccc43)o2)cc1,nt,5.0,-1,27%,nt,21,4.2
COc1ccccc1-n1c(C)nc2cc(C(=O)NCC3CCCO3)ccc21 (centres undefined),0.1,0.8,-4,3%,4,-1,-0.5
CN1CCCN(S(=O)(=O)c2cccc(C#N)c2)CC1,1.0,3.9,nt,3%,6,1,3.5
Cc1ccc(-n2ncc3c2CCCC3NC(=O)CCn2ccnc2C)cc1C (centres undefined),8.3,2.0,-6,0%,1,-2,0.3
C[C@H]1CN([C@@H](C)CO)C(=O)Cc2cc(NC(=O)CCN3CCOCC3)ccc2O[C@@H]1CN(C)Cc1ccc(Oc2ccccc2)cc1,-468,nt,nt,-1%,-4,3,0.6
CC(NC(=O)CSC(=S)N1CCCC1)c1ccc(S(N)(=O)=O)cc1 (centres undefined),-0.2,-0.6,-4,5%,14,-3,-4.1
O=C(Nc1ccc2c(c1)OCO2)OCc1ccccc1,-0.4,0.2,-35,32%,-5,-10,-2.9
COCCNC(=O)/C(C#N)=C/c1nc(N(C)C)n(-c2ccc(F)cc2)c1Cl,-2.0,nt,15,-6%,4,2,0.2
C=CCSc1nnc(NC(=O)CSc2nc3ccccc3[nH]2)s1,0.8,1.3,10,0%,-1,-12,-1.2
CC(C)[C@H](NC(=O)c1ccco1)C(=O)OCC(=O)Nc1ccccc1OC(F)F,0.8,0.3,-1,3%,0,-4,-0.3
Cc1ccc(N(CC(=O)NCC2CCCO2)C(=O)CCC(=O)Nc2ccccn2)cc1 (centres undefined),1.4,0.8,1,nt,1,0,-4.8
COc1ccccc1/C=C1\NC(=S)N(CC2CCCO2)C1=O (centres undefined),-6.9,2.7,6,8%,17,-11,6.2
Cn1c(=NC(=O)c2ccco2)sc2cccc(F)c21,-4.0,5.4,-3,-15%,-5,-10,0.0
CCc1ccc(C(=O)C[n+]2cccc3cc(OC)ccc32)cc1,2.3,-4.2,-6,nt,11,1,0.6
COc1ccc(-c2nnc(SCC(=O)O)n2C)cc1OC,2.1,5.3,-7,-4%,-14,2,1.6
O=[N+]([O-])c1ccc(COc2cccc(CN3CCCC3)c2)cc1,nt,nt,nt,-8%,nt,-3,-2.8
O=C(NCCCn1ccnc1)C(Cc1ccc([N+](=O)[O-])cc1)N1C(=O)c2ccccc2C1=O (centres undefined),6.4,-1.4,6,31%,-3,1,0.1
COc1ccc2[nH]c(=O)c(CN(Cc3ccccc3)Cc3nnnn3CC3CCCO3)cc2c1 (centres undefined),-3.7,-4.6,-2,20%,-1,-3,-0.7
C=CCC[C@@H](Cc1ccc(F)cc1)C(=O)OC[C@H](Cc1c[nH]c2ccccc12)NC(=O)[C@@H](CC=C)CC(=O)N[C@H](CO)Cc1ccccc1,-3.0,nt,nt,nt,1,3,-4.1
CCCCC1=CC2=C(c3ccco3)C(=O)C(C)(OC(=O)c3ccc(OC)cc3)C(=O)C2=CN1C1CCCCC1 (centres undefined),5.6,-12,-3,nt,nt,13,-6.5
CC1CCCN(C(=O)CCCn2c(=S)[nH]c3ccccc3c2=O)C1 (centres undefined),-3.7,?,20,0%,nt,-6,0.5
